Screening results as filed in PubChem BioAssay.
MT1-MMP act inh = blocks activation of human MT1-MMP; P50281; HT1080 RFP-PRO-GFP cells, GFP/RFP ratio fluorescence, overnight; percent of plate control window, DMSO zero; GFP/RFP ratio change, % at 20 µM; hit rate 0.061% among 360,000;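 active means GFP/RFP ratio change of at least 30% with cell ATP level not reduced by more than half and red fluorescence within 50% of control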; further: strong numbers were not always called active
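Assay system: HT1080 RFP-PRO-GFP cells. Benchmarks: DMSO vehicle wells and RFP-L50D-GFP reporter cell wells. Times: overnight cell settling, then overnight compound exposure, 37 °C, 5% CO2. Compound: 20 µM single dose, 1% DMSO. Read-out basis: GFP/RFP fluorescence ratio.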
CSC inhib = blocks cancer stem cells. cancer stem cell-like cells viability, luminescence. inhibition, % at 7.5 µM. hit rate 1.1% among 300,000;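 active means mean at 75% or more and at least half the replicates too; inconclusive means mean and replicates disagree; tested in HMLE shEcad cells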;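 further: 0% = median of negative and 100% = median of positive control wells; the first replicate is given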
HIV Env fusion = inhibitors of HIV Env-mediated cell fusion; HeLa-JRFL Env/CEM21 cell fusion, luciferase; inhibition, % at 12.3 µM; hit rate 1.1% among 360,000;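 active means mean replicate inhibition score of at least 50 and every replicate individually at or above 50; inconclusive means only one of the two criteria met; inactive means mean below 50 and not all replicates reaching 50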;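 further: 0% = plate neutral controls and 100% = maraviroc near 300 nM; one replicate is shown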
PABP polyA inh = PABP-poly(A) binding inhibition; PABP-poly(A) RNA binding, fluorescence polarization; inhibition, % at 35 µM; hit rate 1% among 290,000; AID 2014;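 active means 50% or more with normal probe brightness, or confirmed in later tests; inconclusive means above 50% with abnormal brightness, or retests that disagree; inactive means below 50% or failed in later tests; about a fifth of its hits are not listed in these tables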;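 further: calls also rest on retests at 20 µM and on dose response follow-up; controls were probe without protein and protein plus probe with vehicle; some compounds called inactive have numbers as strong as hits; many hits fall short of the cut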
Target sequence (P11940 whole entry, looked up): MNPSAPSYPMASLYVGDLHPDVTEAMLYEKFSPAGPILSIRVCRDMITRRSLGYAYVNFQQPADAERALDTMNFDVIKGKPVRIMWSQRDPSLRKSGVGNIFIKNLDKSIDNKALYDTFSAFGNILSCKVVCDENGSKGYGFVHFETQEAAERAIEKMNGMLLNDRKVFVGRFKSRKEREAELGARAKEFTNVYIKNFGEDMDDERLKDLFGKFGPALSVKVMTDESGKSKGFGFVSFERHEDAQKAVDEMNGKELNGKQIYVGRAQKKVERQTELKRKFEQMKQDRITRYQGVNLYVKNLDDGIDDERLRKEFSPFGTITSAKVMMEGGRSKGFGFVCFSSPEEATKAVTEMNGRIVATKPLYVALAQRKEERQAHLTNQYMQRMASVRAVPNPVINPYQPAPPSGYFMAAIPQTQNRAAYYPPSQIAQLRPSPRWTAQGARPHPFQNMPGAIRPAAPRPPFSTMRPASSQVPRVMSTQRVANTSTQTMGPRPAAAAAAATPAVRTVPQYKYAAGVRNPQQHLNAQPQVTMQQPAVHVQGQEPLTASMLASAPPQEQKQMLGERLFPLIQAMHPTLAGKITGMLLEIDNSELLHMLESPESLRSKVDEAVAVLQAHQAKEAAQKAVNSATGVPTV
Rce1 inhib = inhibitors of yeast Ras-converting enzyme. Q03530. yeast membranes, quenched prenylated peptide cleavage fluorescence. calls only. hit rate 0.27% among 290,000;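 active means fall in fluorescence gain of 50% or more versus controls, with final raw signal at or below 3038400; inconclusive means same 50% fall but final raw signal above 3038400; inactive means fall in fluorescence gain under 50%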;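 further: plate controls were neutral control wells for no effect and wells lacking membranes for full effect; tested at 10 µM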
UUG fidelity = yeast start codon fidelity modulation; hit rate 0.13% among 350,000; S. cerevisiae UUG-firefly luciferase reporter, luminescence/redox ratio; activity score, % at 18.7 µM;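 active means replicate mean at a twofold rise or more, about +100% in these data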;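 further: firefly luciferase made from a UUG start codon reports start codon fidelity; reporter light over untreated wells divided by growth signal over untreated wells; some hits fall short of that in this replicate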
eIF4H FP inh = inhibitors of RNA binding by human eIF4H; Q15056; eIF4H fluorescence polarization binding assay; inhibition, % at 35 µM; hit rate 0.94% among 290,000; AID 2012;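 active means 50% or more with normal probe brightness, or confirmed in later tests; inconclusive means above 50% with abnormal brightness, or retests that disagree; inactive means below 50% or failed in later tests; about a fifth of its hits are not listed in these tables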;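 further: calls also rest on retests at 20 µM and on dose response follow-up; 0% = protein and probe with vehicle and 100% = probe without protein; strong numbers were not always called active; many hits fall short of the cut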
MT1-MMP act inh RFP = recorded beside MT1-MMP act inh, whose call it bears; RFP signal change, %; measured here: RFP expression control read;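 0 = vehicle wells; hits needed this value within 50% of zero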
* marks the source's active call; other numbers are inactive results; i = inactive; ? = inconclusive; . = not tested or not shown; & = joins results of further samples. Hits appear at their usual frequency. About 2.9% of those tested had a hit in this group.

SMILES	MT1-MMP act inh	MT1-MMP act inh RFP	CSC inhib	HIV Env fusion	PABP polyA inh	Rce1 inhib	UUG fidelity	eIF4H FP inh
O=C1CCCN1CCCNc1ccc2nnc(CCC(=O)N3CCN(c4ccccc4)CC3)n2n1	4	2	2	-10	8	i	-20	-5
O=C(CSc1ccccc1)Nc1ccc(S(=O)(=O)Nc2ncccn2)cc1	2	2	-9	-1	14	i	-9	2
CC(=O)Nc1ccc(C(=O)OCC(=O)NCc2ccc3c(c2)OCO3)cc1	-4	-4	-14	1	.	.	-26	.
CC1(C)CC(=O)c2sc(NS(=O)(=O)Cc3ccccc3)nc2C1	3	5	-9	-12	-16	i	-19	-3
Cn1c(=O)c(C(=O)CN2CCCCC2)c(N)n(Cc2ccccc2)c1=O	-1	1	-10	-51	-4	i	-9	8
COc1cc(C(c2c(C)[nH][nH]c2=O)c2c(C)[nH][nH]c2=O)ccc1OS(=O)(=O)c1ccc(C)cc1	-2	-4	-5	-58	7	i	-17	19
COc1ccc(NC(=O)CN(C)C(=O)C2=NN(c3ccccc3)C(=O)CC2)cc1	-1	2	.	10	.	.	-31	.
O=C(NCc1cccnc1)c1cccc(NC(=O)c2ccco2)c1	3	3	6	-28	5	i	-13	3
COc1ccc(CCNC(=O)CCCCCNc2nc(=S)[nH]c3ccccc23)cc1OC	2	-1	4	-10	-5	i	-14	-6
Cc1cc(NC(=O)CS(=O)(=O)Cc2ccccc2)no1	-1	6	-10	22	-6	i	.	-8
Cc1nc2ccccc2c(C)c1CC(=O)N(C)CC(=O)Nc1cccc(F)c1	-8	-3	-17	10	.	i	.	.
Cc1cccc(C)c1-n1c(SCC(=O)NCc2ccco2)nc2ccccc2c1=O	-5	-3	-14	.	20	i	3	3
O=C(O)c1ccc(N/N=C/c2cccc(C(F)(F)F)c2)cc1	-6	-2	10	-17	7	i	-3	-6
Cc1ccnc(SC2CC(=O)N(c3ccc(Cl)cc3)C2=O)n1 (centres undefined)	1	-1	18	25	10	i	-14	-4
CC(C)CC(=O)Nc1nnc(CCc2ccccc2)s1	1	1	-12	-6	-3	i	-9	-4
Cc1ccccc1CSc1ccc(S(=O)(=O)N2CCCC2)cn1	0	-3	7	5	.	.	.	.
CC(C)(C)NC(=O)NC(=O)CN1CCN(Cc2ccccc2)CC1	-4	1	-16	1	-2	i	.	-4
CCN(CC)CCN1C(=O)C(=O)/C(=C(/O)c2ccc(OC(C)C)cc2)C1c1ccncc1 (centres undefined)	-1	1	.	.	-5	i	-9	-5
COc1ccc(OCC(=O)N2CCN(S(=O)(=O)c3ccc(Cl)cc3)CC2)cc1	3	0	-9	.	-2	i	3	7
CCOC(=O)[C@@H]1[C@H]2COc3ccc(Br)cc3[C@H]2N2C(=O)N(c3ccc(OC)cc3)C(=O)[C@]12C	0	-2	0	-26	.	.	-17	.
CCOC(=O)C1CCN(C(=O)Nc2ccc3nc(-c4ccco4)c(-c4ccco4)nc3c2)CC1	-18	-5	6	.	0	i	-8	?
COc1cccc(N2CCN(c3ccc4nnc(CCC(=O)Nc5ccccn5)n4n3)CC2)c1	4	2	-17	-1	8	i	-14	-2
CSc1nc2ccc(NC(=O)COc3ccccc3F)cc2s1	12	3	-3	.	.	.	-11	.
Cc1ccc(C)c(S(=O)(=O)N2CCCOC2CNC(=O)C(=O)NCCC2=CCCCC2)c1 (centres undefined)	-4	-10	2	13	1	i	.	0
CC1(C(=O)NS(=O)(=O)c2ccc(F)cc2F)CCN1C(=O)C1(c2ccc(Cl)cc2)CC1 (centres undefined)	1	8	.	-5	.	.	10	.
Cc1cc(C)cc(NC(=O)c2nnn(Cc3cc(C)ccc3C)c2N)c1	-6	-16	.	.	-2	i	-10	-8
FC(F)(F)c1cccc(NC(=S)N2CCN(c3ccccn3)CC2)c1	4	4	13	8	-6	i	.	-2
COc1ccc(C(=O)Nc2ccc(N3CCOCC3)cc2)cc1S(=O)(=O)N1CCOCC1	3	1	.	-11	.	.	-22	.
CC(C(c1cccs1)c1c(N)n(C)c(=O)n(C)c1=O)[N+](=O)[O-] (centres undefined)	1	0	10	-8	5	i	.	5
CCOC(=O)c1cc(CC)sc1NC(=O)CC1Sc2ccc(C(F)(F)F)cc2NC1=O (centres undefined)	3	5	-14	5	-9	i	.	10
O=C1CC(c2ccccc2)CC(O)=C1C=NCCN1CCN(Cc2ccccc2)CC1 (centres undefined)	4	-1	-3	13	10	i	.	-6
COc1ccc(NS(=O)(=O)c2cc(NC(=O)c3ccco3)ccc2N2CCCCC2)cc1	-3	-9	52	-14	-3	i	.	9
COc1ccc(CCNc2ncnc3c2oc2ccccc23)cc1OC	-3	-25	-3	.	1	i	-17	-1
CCOc1ccc(CNS(=O)(=O)c2c(C)nc3sccn3c2=O)cc1OC	1	4	-5	0	-7	i	-3	-4
COc1cc2oc(=O)cc(CN3CCCCC3)c2cc1Cl	3	2	.	-5	.	.	-15	.
COc1ccc(C(=O)N2CCCC(CO)C2)cc1OC1CCN(C(C)C)CC1 (centres undefined)	1	6	.	16	.	.	-8	.
Cc1cccc(C(=O)N/N=C/c2ccc(OCC(=O)N3CCCCC3)cc2)c1	1	-1	-9	-40	-8	i	-5	11
CCCn1c(=O)c(C(=O)NCc2ccco2)c(O)c2ccccc21	5	4	-8	-22	4	i	.	-10
COc1cccc(CNC(=O)CNC(=O)N2CC(=O)Nc3ccccc32)c1	-1	2	-4	-13	1	i	9	-8
O=C(/C=C/c1cccs1)c1ccc(Br)cc1	-3	-1	2	.	2	i	-20	-3
CC(=O)Nc1ccc(NC(=O)C2CCCCN2S(=O)(=O)c2ccc(C(C)(C)C)cc2)cc1 (centres undefined)	0	-3	16	31	-2	i	0	-11
Cc1cc(C(=O)OCC(=O)NCc2ccc(Cl)cc2Cl)c(C)o1	5	0	-9	-9	.	.	-7	.
Fc1ccc2cnc(-c3ccccc3)c(-c3cccc(C(F)(F)F)c3)c2c1	0	-2	25	50	.	.	-12	.
S=C(NCc1ccco1)Nc1ccc(Cl)cn1	-5	-3	-20	4	11	i	-22	12
CCn1cc(C(=O)NN)c(=O)c2cc(F)c(N3CCOCC3)cc21	1	-2	-13	-3	-6	i	-31	-14
COc1cc(NC(=O)c2c(F)c(F)c(OC)c(F)c2F)ccc1NC(=O)c1cccs1	1	-2	22	1	8	i	-20	4
Cc1cc2cc(CNS(=O)(=O)c3ccccc3)ccc2n1C	32	58	14	11	20	i	-10	18
CN(CC(=O)Nc1ccc(N2CCOCC2)cc1)C(=O)c1cc2c(s1)CCCC2	3	2	.	2	.	.	-4	.
CCNc1nc(NCC)n2c(SCC(=O)Nc3ccccc3)nnc2n1	-5	-1	2	-10	6	i	.	-3
COc1ccc(C(=O)Nc2ccccc2N2CCOCC2)cc1S(=O)(=O)N1CCOCC1	-5	-3	.	1	.	.	-15	.
Remaining list, next part:
SMILES	MT1-MMP act inh	MT1-MMP act inh RFP	CSC inhib	HIV Env fusion	PABP polyA inh	Rce1 inhib	UUG fidelity	eIF4H FP inh
COC(=O)c1c(N2C(=O)CC(Sc3ncccc3C(=O)O)C2=O)sc(C)c1C (centres undefined)	3	2	0	-8	13	i	.	-9
O=C(O)CCN1C(=O)/C(=C\c2ccc(OCc3ccccc3)c(OCc3ccccc3)c2)SC1=S	-4	-1	21	-66	-10	i	-1	4
Cc1ccc(CN(C)C(=O)C2CCC(=O)N(C3CCCCCC3)C2)cc1 (centres undefined)	-1	-2	15	2	-4	i	-19	6
COc1ccc(S(=O)(=O)N(C)CC(=O)N2CCCCCC2)cc1OC	3	2	-4	.	6	i	0	7
CC(C)(C)C(=O)Nc1ccc(C(=O)N/N=C/C2CC3C=CC2C3)cc1 (centres undefined)	0	-2	-2	24	9	i	.	6
Cc1ccc(Cn2nnc3c(=O)[nH]c(C4CCN(C(=O)c5cccs5)CC4)nc32)cc1	0	-2	12	3	-2	i	5	5
COc1ccc(NC(=O)N(C)C[C@H]2Oc3ccc(NS(=O)(=O)c4cccs4)cc3C(=O)N([C@@H](C)CO)C[C@@H]2C)cc1	0	4	.	-1	.	.	30&-6	.
CCCC1CCc2c(sc(NC(=O)OCC)c2C#N)C1 (centres undefined)	1	-7	.	-63	3	i	-16	-4
O=C(Cn1c(=O)oc2cc(S(=O)(=O)N3CCCCC3)ccc21)N1CCc2ccccc21	0	1	-9	-20	1	i	-17	-18
COc1cc(/C=C/C(=O)O)cc(S(=O)(=O)NCC2CCCO2)c1OC (centres undefined)	-8	-15	-4	-98	5	i	-4	2
COc1ccccc1-n1cnc2cc(NCc3ccccc3O)ccc21	-1	-6	-4	0	-3	i	-14	5
COc1cccc(C(=O)NCC(c2cccnc2)N2CCN(c3ccccc3OC)CC2)c1 (centres undefined)	-3	-17	5	.	0	i	-7	2
COC(=O)c1cc(S(=O)(=O)Nc2nn(C)c3cccc(F)c23)oc1C	0	0	-15	-2	-2	.	.	2
CC(C)(C)OC(=O)C[C@H]1C/C=C\C[C@@H](CC(=O)N(CCO)Cc2ccccc2)C(=O)NC[C@@H](c2ccccc2)OC1=O	4	0	-19	-29	.	.	26	.
Cc1ccc(COc2coc(CN3CCN(C(=O)c4ccco4)CC3)cc2=O)cc1	0	0	-11	8	.	i	-14	.
CCCOc1ccc(OCCNC2CCCC2)cc1	1	0	24	2	3	i	-16	10
S=C(c1ccc(-c2ccc(Cl)cc2)o1)N1CCCCC1	3	-4	62	-483	9	i	-44	4
O=C(CCNS(=O)(=O)c1ccc(OC(F)(F)F)cc1)N1CCCC1	1	-2	.	7	.	.	5	.
O=C1c2ccccc2C(Nc2ccccc2F)N1c1cccnc1 (centres undefined)	3	-3	12	-33	-1	i	-16	-1
C=CCOC(=O)C1=C[C@H](c2ccc(Br)cc2)C[C@H](OCCCCO)O1	-4	-1	1	16	.	i	-15	.
O=C1CCN2C=Nc3cccc4ccc1c2c34	-229	6	-8	41	?	i	-17	?
Cc1nc(N)sc1-c1csc(Nc2ccc(S(N)(=O)=O)cc2)n1	-6	2	3	-5	14	i	14	-2
Cc1ccc(S(=O)(=O)N(Cc2ccccc2)c2ccccc2C(=O)NCc2cccnc2)cc1	2	1	.	.	-4	i	-13	-8
O=C(Nc1cccc2c1CCCC2)c1cc(C2CCCCN2C(=O)CCCc2ccccc2)on1 (centres undefined)	-10	-14	.	6	.	.	-13	.
O=C(CN(C(=O)CNC(=O)c1cccs1)c1ccc(F)cc1)NC1CCCCC1	1	-1	-9	-1	0	i	10	-7
O=C(NC(=S)NNC(=O)c1ccco1)c1ccc(Br)cc1	2	-1	9	-8	-1	i	-27	-7
C#Cc1cc(N2CCN(C(=O)c3ccoc3)CC2)n2nc(-c3cccc(Cl)c3)cc2n1	-59	-29	.	3	.	.	7	.
O=C(C1CCC(CNS(=O)(=O)c2ccc(F)cc2)CC1)N1CCOCC1 (centres undefined)	2	4	-2	-6	3	i	-42	0
COc1ccc(N2CCN(C(=O)C3CCCN(S(=O)(=O)c4cccc5cccnc45)C3)CC2)cc1 (centres undefined)	3	-9	.	3	0	i	9	-7
COCCCNC(=O)COc1cc2c(c3oc(=O)c(C)c(C)c13)CCC(C)(C)O2	6	2	0	-2	3	i	-10	7
COc1cc(C(=S)N2CCOCC2)cc(OC)c1OC(=O)c1ccc(F)cc1	-1	4	-11	5	-2	i	-14	5
